Bm FixLJ act = increases Burkholderia fixLJ two-component signaling | z-score (test concentration not listed) | 0.3% of 29,000 active | AID 1918990 | B. multivorans fixK-promoter GFP reporter, 18 h; active compounds read high;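 active = replicate mean overnight rise in green fluorescent reporter signal, 3 or more SD over negative controls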;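 note: score is relative to vehicle wells of the plate; 300 nL library stock went into each well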
* marks the source's active call; other numbers are inactive results. An excerpt; count on the stated rates, not on these rows.

| Structure | Bm FixLJ act |
| --- | --- |
| CC(C(=O)N1CCNC(=O)CC1)c1n[nH]c(=O)c2ccccc12 (stereo not given) | -0.43 |
| CCOC(=O)c1ncn2c1CN(C)C(=O)c1cc(F)ccc1-2 | -1.6 |
| O=C(Nc1c(C(=O)c2ccccc2)oc2ccccc12)c1cc(=O)c2ccccc2o1 | -1.6 |
| CSCC(NC(=O)CCN1CCCCCC1=O)C(=O)O (stereo not given) | -1.2 |
| CCc1ccc(OCC(=O)NC(Cc2c[nH]c3ccccc23)C(=O)O)cc1 (stereo not given) | -1.3 |
| O=C(NCc1noc(C2CCCC2)n1)c1ccc(CN2CCCCC2)cc1 | -1.2 |
| Cc1nccn1CCC1CCCCN1C(=O)NCc1cnn(C(C)C)c1 (stereo not given) | 1.1 |
| COc1cccc(CN(C(=O)c2oc3ccccc3c2C)C2CCS(=O)(=O)C2)c1 (stereo not given) | -0.24 |
| O=C(NCC1CN(CC2CCN(CC3CC3)CC2)C(=O)CO1)c1cccnc1 (stereo not given) | -1.9 |
| Cn1ncc2c(N)nc(N3CCC(O)[C@](CO)(Cc4ccccc4)C3)nc21 (stereo not given in full) | -0.72 |
| CC(NCCc1ccc(O)cc1)C(O)c1ccc(O)cc1 (stereo not given) | -1.3 |
| Cc1cc(C)nc(NS(=O)(=O)c2ccc(NC(=O)COc3ccc(C(C)(C)C)cc3)cc2)n1 | -1.9 |
| O=C(C1=Cc2ccccc2OC=C1)N1CCCN(C(=O)c2cc(C3CC3)[nH]n2)CC1 | 0 |
| CCC(=O)N1CCc2[nH]cnc2C12CCN(C(=O)Cc1ccc(O)cc1)CC2 | 0.52 |
| COc1ccc(NC(=O)c2c(C)oc3ccc(O)c(CN4CCCC4)c23)cc1Cl | -1.1 |

4 successive compounds from above:
| Structure | Bm FixLJ act |
| --- | --- |
| CC(C(=O)N1CCNC(=O)CC1)c1n[nH]c(=O)c2ccccc12 (stereo not given) | -0.43 |
| CCOC(=O)c1ncn2c1CN(C)C(=O)c1cc(F)ccc1-2 | -1.6 |
| O=C(Nc1c(C(=O)c2ccccc2)oc2ccccc12)c1cc(=O)c2ccccc2o1 | -1.6 |
| CSCC(NC(=O)CCN1CCCCCC1=O)C(=O)O (stereo not given) | -1.2 |

Additional compounds
| Structure | Bm FixLJ act |
| --- | --- |
| COCCNC(=O)c1ccc2c(c1)N=C(C)c1cc(C)ccc1S2 | -0.67 |
| CCOc1ccccc1NC(=O)C1CCN(S(=O)(=O)c2ccccc2)CC1 | -2.3 |
| CS(=O)(=O)N1CC2CCC(C1)C2NC(=O)CCn1c(=O)[nH]c2ccccc21 (stereo not given) | -0.93 |
| COc1ccc(C(=O)NC(c2ccccn2)C2CC(O)C2)c(OC)c1 (stereo not given) | 0.12 |
| O=C(NCCCN1CCN(c2cccc(Cl)c2)CC1)Nc1ccccc1C(F)(F)F | -0.07 |
| CCC(C)n1c(=N)c(C(=O)NC2CCCCC2)cc2c(=O)n3cc(C)ccc3nc21 (stereo not given) | -1.6 |
| N#CC1=C2SCN(C3CCCCC3)CN2C(=O)CC1c1c(F)cccc1Cl (stereo not given) | -1.8 |
| O=C(N1CC(CO)C(CN2CCOCC2)C1)C1(c2ccc(Cl)cc2)CC1 (stereo not given) | -0.19 |
| O=C(c1cccc2c1OCCO2)N1CC(O)C(Cc2cnccn2)C1 (stereo not given) | -0.3 |
| CCC(=O)N1CCc2cc(Br)cc(S(=O)(=O)N3CCCC(C(=O)NCc4ccc(OC)cc4)C3)c21 (stereo not given) | -0.81 |
| O=C(O)c1ccc(CNCc2ccccc2Cl)s1 | 0.64 |
| COCC(NC(=O)c1ccc2cn[nH]c2n1)c1ccnn1C (stereo not given) | 0.55 |
| Cc1sc2ncn(CC(=O)Nc3cccc(C(F)(F)F)c3)c(=O)c2c1S(=O)(=O)N1CCN(C)CC1 | 0.02 |
| Cc1ccc(C(=O)c2oc3ccccc3c2NC(=O)Cc2coc3ccc(C)cc23)cc1 | -0.43 |
| CCOC(=O)N1CCc2c(sc3c2c(=O)n(-c2ccc(F)cc2)c(=O)n3CC(=O)c2ccccc2)C1 | -0.48 |

(continued)
| Structure | Bm FixLJ act |
| --- | --- |
| CCOc1ccc(CNC(=O)c2ccc3c(Cl)c4c(nc3c2)CCCC4)cc1 | -1.1 |
| CCOC(=O)c1ccc(N2C(=O)c3n[nH]c(-c4cccs4)c3C2c2ccc(O)c(OC)c2)cc1 (stereo not given) | 1.6 |
| COc1cccc(Cn2c(=O)n(-c3ccc(Br)cc3F)c(=O)c3sc4ccccc4c32)c1 | -0.63 |
| COc1ccc(CNC(=O)CCc2c(C)c3cc4c(C)c(C)oc4cc3oc2=O)cc1OC | 1.2 |
| CCN(CC)S(=O)(=O)c1ccc2c(c1)N(CC(=O)N1CCN(c3ccccc3F)CC1)C(=O)CO2 | -0.86 |
| Cc1ccc(NC(=O)c2ccc(NC(=O)CCS(=O)(=O)c3cccs3)cc2)cc1F | -0.79 |
| COc1ccc(N2CCN(CC(O)COc3ccc(C(C)C)c(C)c3)CC2)cc1 (stereo not given) | -1.3 |
| CN(Cc1n[nH]c2c1CCCCC2)C(=O)NCc1cn2c(n1)SCC2 | 0.7 |
| Cc1cc(-c2nc3ncccc3o2)ccc1NC(=O)COc1cc(C)c(Cl)c(C)c1 | -0.85 |
| COc1ccc(OC)c(NC(=O)Cn2cnc3ccc(S(=O)(=O)N4CCC(C)CC4)cc3c2=O)c1 | 0.73 |
| CCC(=O)N1CCc2cc(Br)cc(S(=O)(=O)NCCc3ccccc3Cl)c21 | -0.03 |
| CCc1nc2cc(NC(=O)C3CCCCC3C(=O)N3CCCC3)ccc2n1CC (stereo not given) | -0.68 |
| CC1=C(C(=O)Nc2ccc(Cl)cc2)C(c2cccs2)n2nc(SCc3cccc(Cl)c3)nc2N1 (stereo not given) | -2.6 |
| COc1ccc(-n2nc(C(=O)NCCc3ccc(Cl)cc3)c3c4ccccc4n(C)c3c2=O)cc1Cl | -0.86 |
| CC(NC(=O)N1CCN(c2ccccn2)CC1)c1nc2ccccc2n1C (stereo not given) | -3.3 |

Following part:
| SMILES | Bm FixLJ act |
| --- | --- |
| CC(C)C1CN(CC(N)=O)CCC(=O)N1Cc1ccc(F)cc1 (stereo not given) | -2.1 |
| COc1ccc(Nc2c(-c3ccc(C)o3)nc3ccc(Cl)cn23)cc1 | 0.9 |
| CCN1CCN(CCCNC(=O)CS(=O)(=O)Cc2nc(-c3cccc(OC)c3)oc2C)CC1 | -0.52 |
| O=C(CSc1cn(CCNC(=O)c2c(F)cccc2F)c2ccccc12)Nc1ccccc1F | -1.4 |
| CCCCC(CC)CNC(=O)C1CCC(CNS(=O)(=O)c2cccc3nsnc23)CC1 (stereo not given) | -3.6 |
| COCc1cc(C)nc2sc(C(=O)Nc3cc(C)ccc3F)c(N)c12 | -2.4 |
| CC(C)CN(CCCNC(=O)c1cn(C)c2ccc(S(=O)(=O)N(C)C3CCCCC3)cc2c1=O)CC(C)C | -1.2 |
| Cc1cc(C)c2oc(C(=O)Nc3c(C)n(C)n(-c4ccccc4)c3=O)cc(=O)c2c1 | -0.91 |
| CCC(=O)N1CCc2cc(S(=O)(=O)NCCC(=O)Nc3ccc(OC)c(OC)c3)ccc21 | -1.7 |
| Cc1ccc(C)c(CN2C(=O)c3ccccc3S(=O)(=O)c3ccc(C(=O)NCCCN4CCCC(C)C4)cc32)c1 (stereo not given) | -0.73 |
| O=C1CN(C(=O)c2ccc(S(=O)(=O)N3CCCC3)cc2)C(c2ccccc2)c2cc(Cl)ccc2N1 (stereo not given) | 0.15 |
| COc1cccc(N2CCN(Cc3ccc(OC)c(OC)c3)CC2=O)c1 | -1.1 |

Part of the list above, set out differently:
> Cc1cc(C)c2oc(C(=O)Nc3c(C)n(C)n(-c4ccccc4)c3=O)cc(=O)c2c1
  Bm FixLJ act = -0.91

> CC(C)C1CN(CC(N)=O)CCC(=O)N1Cc1ccc(F)cc1 (stereo not given)
  Bm FixLJ act = -2.1

> COc1cccc(N2CCN(Cc3ccc(OC)c(OC)c3)CC2=O)c1
  Bm FixLJ act = -1.1

The results go on:
| SMILES | Bm FixLJ act |
| --- | --- |
| Cc1ccc(CN2CCNC(=O)C2CC(=O)NCc2nc(-c3cnccn3)n[nH]2)cc1 (stereo not given) | 0.78 |
| COc1ccc(/C=C/C(=O)Nc2ccc3nc(N4CCC(C)CC4)cc(C)c3c2)cc1OC | 1.1 |
| Cc1cccc(Nc2nnc(-c3ccc(C)c(S(=O)(=O)N4CCCCC4)c3)c3ccccc23)c1 | 0.32 |
| COc1cccc2ccc(N3CCC(O)[C@@](CC4CC4)(C(=O)O)C3)nc12 (stereo not given in full) | -1.6 |
| COc1ccc(CN2CCn3nc(C(O)c4nccn4C)cc3C2)cc1OC (stereo not given) | -2.4 |
| Cc1c(O)cccc1C(=O)N[C@@H](CSc1ccccc1)[C@H](O)CN1C[C@H]2CCCC[C@H]2C[C@H]1C(=O)NC(C)(C)C | -0.57 |
| CN(C(=O)c1ccc(CSc2ncn[nH]2)o1)C1CCCc2ccccc21 (stereo not given) | 1.2 |
| Cn1ccnc1CN(C(=O)c1cnc2ccccc2n1)C1CC1 | -1.5 |
| COc1ccc(NC(=O)Cn2c(=O)oc3cc(S(=O)(=O)N4CCC(C)CC4)ccc32)c(OC)c1 | 0.29 |
| CC1(c2ccccc2)CC(C)(C)N(C(=O)c2ccccc2Cl)c2ccccc21 (stereo not given) | -1.7 |
| COc1ccccc1N1CCN(C(=O)CCS(=O)(=O)c2cc(Br)cc3c2N(C(C)=O)CC3)CC1 | -1.2 |
| Cc1ccccc1NC(=O)Cn1c(=O)n(CCCCCC(=O)NCc2ccc3c(c2)OCO3)c(=O)c2sccc21 | -0.99 |

Next section.
| SMILES | Bm FixLJ act |
| --- | --- |
| Cc1nc2nc(C)c(CCC(=O)NCc3cccc(Cl)c3)c(C)n2n1 | -0.76 |
| COc1ccc(Cl)cc1NC(=O)c1cc(-c2ccc3c(c2)OCO3)on1 | -0.62 |
| CN(Cc1ccc2c(c1)CCO2)Cc1cc(-c2cccnc2)no1 | -0.59 |
| CCc1ccccc1N1CC(c2nc3ccccc3n2CCCCOc2ccccc2OC)CC1=O (stereo not given) | -0.05 |
| CCn1cncc1CNC(=O)Nc1ccc2c(c1)oc(=O)n2CC | -1.6 |
| COC(=O)c1ccccc1NC(=O)c1ccc(COc2cc(C)cc(C)c2)o1 | -2.8 |
| CCN(CC)CCNC(=O)C1CCN(C(=O)c2cnn(-c3ccccc3)c2-n2cccc2)CC1 | -1.3 |
| COc1cc2c(C(=O)Nc3cc(OC)c(OC)c(OC)c3)cn(C)c(=O)c2cc1OC | -1.6 |
| Cc1ccc(NC(=O)NCc2ccon2)cc1NC(=O)CN(C)C | -1.2 |
| Cc1ccc(-c2cnc(NCc3ccc(C(C)C)cc3)n2C)cc1 | -5.5 |
| Cc1ccc(-c2cc(C(F)(F)F)n3nc(-c4ccc(Cl)cc4)cc3n2)cc1 | -0.19 |
| CNCc1nnc(SCC2CCCCC2)n1CC1CCCO1 (stereo not given) | -1 |

Additional compounds follow.
| SMILES | Bm FixLJ act |
| --- | --- |
| CCOC(=O)N1CCC(NC(=O)c2ccc3c(c2)N(Cc2ccc(F)cc2)C(=O)c2ccccc2S3(=O)=O)CC1 | 1 |
| CCc1nc2nc(C)c(NS(=O)(=O)c3ccc(F)c(C)c3)c(=O)n2[nH]1 | -0.04 |
| CCCC(C)N1CC2(CCN(C(=O)c3cnc(NCC)nc3)CC2)OC1=O (stereo not given) | -0.05 |
| CCOCCn1c(=O)[nH]c2cc(C(=O)N3CCNC(=O)CC3)ccc21 | -0.02 |
| Cc1cccc(-c2ncc(C(=O)N3CCCCCCC3)c(=O)[nH]2)c1 | -0.61 |
| COC(=O)c1sc(N2C(=O)c3oc4ccccc4c(=O)c3C2c2ccc(O)cc2)nc1C (stereo not given) | -1.4 |
| COc1ccc(CCN(CC2CCCO2)C(=O)c2nsnc2C)cc1 (stereo not given) | 0.49 |
| CCOc1ccccc1CNC(=O)c1cc2oc3ccccc3c2n1CC | 0.46 |
| COc1cc(/C=C(\C#N)c2nc3ccccc3[nH]2)ccc1OCc1ccc(F)cc1 | -2.2 |
| CCOC(=O)c1ccc(NC(=O)CCc2c(C)nc3c(c(C)nn3-c3ccccc3)c2C)cc1 | -1.6 |
| CCOC(=O)c1ccc2ncc(C(=O)OCC)c(NCCc3ccc(OC)c(OC)c3)c2c1 | 0.07 |
| CC(C)c1ccc(C(=O)NC2CCOCC2Oc2ccc(CO)cc2)cc1 (stereo not given) | -2.2 |

(next part)
| SMILES | Bm FixLJ act |
| --- | --- |
| CCc1ccc(CNC(=O)c2ccc(CSc3nc4ccncc4n3Cc3ccc(OC)cc3)cc2)cc1 | -0.79 |
| CCOCCCNC(=O)C(c1ccc(C)cc1)N(Cc1ccc2c(c1)OCO2)C(=O)c1ccccc1O (stereo not given) | -1.2 |
| Cc1c(NS(=O)(=O)c2ccc(C(C)(C)C)cc2)c(=O)n(-c2ccccc2)n1C | -1.2 |
| COc1ccc(C(=O)NCc2nnc(SCC(=O)Nc3ccc(C)cc3)n2-c2ccccc2)cc1 | 0.7 |
| COc1ccc(NC(=O)c2cc3c(s2)-c2c(C)cccc2OC3)c(OC)c1 | 0.06 |
| CCN(CC)c1ccc(-n2nc3cc(C)c(NC(=O)c4ccccc4C)cc3n2)c(C)c1 | -0.48 |
| COC(=O)c1cc(-c2ccc(Cl)cc2)c2c(=O)[nH]c(=O)n(C)c2n1 | -1.6 |
| Cc1ccc2cc(CN3CCCC(O)(CO)C3)c(-c3cccs3)nc2c1 (stereo not given) | 1.2 |
| Cc1[nH]ncc1CN(C)CC(=O)Nc1ccc(C(N)=O)cc1 | -1.1 |
| COc1ccc(-n2nc(C(=O)NCCc3ccc(OC)c(OC)c3)c3c4ccccc4n(C)c3c2=O)cc1Cl | 0.68 |
| Nc1nc(N)c(S(=O)(=O)c2ccccc2)c(Nc2ccc(Br)cc2)n1 | -7.6 |
| CCn1cc(C(=O)NCCc2ccc(C)cc2)c(=O)c2cc(S(=O)(=O)N3CCCCC3)ccc21 | 1.3 |

Remaining list, next part.
| SMILES | Bm FixLJ act |
| --- | --- |
| CCOc1ccc(CCNC(=O)Cn2nc(CC)n3c(cc4sc(CC)cc43)c2=O)cc1OCC | -1.8 |
| O=C(Nc1cc(NC(=O)c2ccccc2Cl)ccc1Cl)c1ccccc1 | 0.25 |
| O=C(NCC1CCN(Cc2ccccc2F)CC1)Nc1ccc(F)c(Cl)c1 | -0.79 |
| Cc1cccc(OCC(=O)NCCc2nc3ccccc3[nH]2)c1C | -0.63 |

Screening results from PubChem BioAssay.
